MgrA DNA FP = S. aureus MgrA activity modulators, primary screen, biochemical, S. aureus Newman, fluorescence polarization; 84,000 compounds, 0.13% hits; MgrA-DNA binding; inhibition, %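 (about 10 µg/mL by stock and volumes)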;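 active means above 50% in either of two replicates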;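 further: 0% = protein plus DNA without compound and 100% = DNA alone without protein; higher means less MgrA bound to DNA so lower polarization; one replicate is shown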
Sa helicase inh = inhibitors of S. aureus replicative helicase, primary screen, biochemical, fluorescence unwinding readout. inhibition, %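 (tested at about 80 µM)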. purified S. aureus helicase, fluorescence unwinding assay; about half of the hits fall short of the stated cut. 120,000 compounds, 0.05% hits. replicative DNA helicase (DnaC/DnaB), Staphylococcus aureus;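 active means both duplicates at 50% or more, or one of them with a favoured structure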;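 further: 0% = mean of negative control wells and 100% = mean of positive control wells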
The depositor's hits bear a star; nt = not tested or not shown. A portion of the library (hit frequency here may not be typical).

SMILES | MgrA DNA FP | Sa helicase inh
Cc1oc(-c2ccc(C(=O)NC3CCCC3)cc2)nc1CS(=O)c1ccccc1 (centres undefined) | nt | 19
CN1CCCN(C(=O)c2cc(=O)c3ccccc3o2)CC1 | nt | -7
COc1cccc(C2(O)CCN(C(=O)Cc3ccc(OC)c(OC)c3)CC2)c1 | 4.5 | 16
CCCc1cc2c(c(N)n1)c(=O)oc1ccccc12 | nt | 32
CC1=C(C(=O)Nc2cccc(Cl)c2C)C(c2ccc(F)cc2)NC(=S)N1 (centres undefined) | 0.1 | 3
CC(=O)Nc1ccc(C(=O)OCC(=O)c2ccc(Cl)cc2Cl)cc1 | 0.3 | 2
COc1nc(N=C(N)N)nc2ccc(C)cc12 | -4.0 | 24
CC1(C)OC2OC(C(O)CO)C(O)C2O1 (centres undefined) | -1.1 | nt
CCCCn1c2ccccc2c2nnc(SCCN3CCOCC3)nc21 | 0.8 | 17
Nc1ccc(S(=O)(=O)NC2CCCCC2)cc1 | -2.2 | -3
O=C1O[C@@H]2C[C@H]3C[C@@H]2[C@@H]1[C@H]3C(=O)N1CCCCC1 | 1.0 | 6
COc1ccc2[nH]c(C(=O)Nc3ccc4c(c3)OCO4)cc2c1 | -0.7 | nt
Cc1ccc(Nc2ncc(C(=O)NCCC3=CCCCC3)c3ccccc23)cc1Cl | 0.2 | 12
Cn1c(=O)c(C#N)c(O)c2ccccc21 | nt | 21
COC(=O)c1ccc2c(c1)N(Cc1nc(-c3ccccc3C)oc1C)C(=O)C1CCCN21 (centres undefined) | nt | -20
COC(=O)c1c(NC(=O)/C=C/c2cccs2)sc2c1CCCC2 | nt | 5
Cc1cc(=O)[nH]c(N/N=C/C=C/c2ccccc2)n1 | nt | 42
CN(CC(=O)NCc1cccc(F)c1)C(=O)c1ccco1 | nt | 4
CC[N+](C)(C)Cc1ccccc1Br | -1.6 | nt
CCOC(=O)C1CCCN(S(=O)(=O)c2ccccc2)C1 (centres undefined) | 2.2 | 8
C[C@]12C[C@H](O)[C@@H]3c4ccc(O)cc4CCC3[C@@H]1CCC2=O (some centres undefined) | nt | 2
COc1cc(OC)cc(C2C(C#N)=C(N)OC(N)=C2C#N)c1 | -3.0 | -74
CC1CN(Cc2oc(CO)cc(=O)c2O)CC(C)O1 (centres undefined) | nt | -14
O=C(COc1nc2ccccc2nc1N1CCOCC1)N1CCc2ccccc21 | nt | -8
C/C(=N\OC(=O)c1ccc(Cl)cc1)c1ccc(F)cc1 | -2.7 | nt
COc1cc(OC)c(C(=O)OCC(=O)c2ccc3c(c2)NC(=O)CO3)cc1OC | nt | 6
O=[N+]([O-])c1cccc(-c2ncon2)c1 | 0.1 | nt
COc1ccc(NC2CS(=O)(=O)CC2NCc2ccco2)cc1 (centres undefined) | -1.1 | 6
CCN1CCN(c2ccc(NC(=O)CCc3c(C)nc4cc(-c5ccc(OC)cc5OC)nn4c3C)cc2)CC1 | nt | 7
O/N=C1/CCCc2nonc21 | -2.1 | nt
O=c1[nH]c2cccc(Cl)c2n(CCNc2ncc(C(F)(F)F)cc2Cl)c1=O | 0.7 | nt
Cc1ccc(N2CC(C(=O)NCc3ccccn3)CC2=O)cc1 (centres undefined) | 0.4 | 12
COC(=O)Cn1cnc2ccccc2c1=O | nt | 6
O=C(CCC1COc2ccccc2O1)N1CCCC1 (centres undefined) | 2.0 | -14
CN1CCN(c2ccc(Cl)cc2NC(=O)c2cccc(S(=O)(=O)N3CCc4ccccc43)c2)CC1 | nt | -6
CCN1C(=O)C(C(O)c2cc(OC)ccc2OC)SC1=Nc1ccc(C(=O)OC)cc1 (centres undefined) | 2.2 | -6

Profiles, looked up by structure:
COC(=O)Cn1cnc2ccccc2c1=O is listed with MgrA DNA FP: nt; Sa helicase inh: 6
CN(CC(=O)NCc1cccc(F)c1)C(=O)c1ccco1 is listed with MgrA DNA FP: nt; Sa helicase inh: 4
COc1ccc2[nH]c(C(=O)Nc3ccc4c(c3)OCO4)cc2c1 is listed with MgrA DNA FP: -0.7; Sa helicase inh: nt

Reprinted at random: six entries already listed, in no set order.
SMILES | MgrA DNA FP | Sa helicase inh
O/N=C1/CCCc2nonc21 | -2.1 | nt
O=C(CCC1COc2ccccc2O1)N1CCCC1 (centres undefined) | 2.0 | -14
COC(=O)Cn1cnc2ccccc2c1=O | nt | 6
CCN1C(=O)C(C(O)c2cc(OC)ccc2OC)SC1=Nc1ccc(C(=O)OC)cc1 (centres undefined) | 2.2 | -6
O=[N+]([O-])c1cccc(-c2ncon2)c1 | 0.1 | nt
Cc1ccc(N2CC(C(=O)NCc3ccccn3)CC2=O)cc1 (centres undefined) | 0.4 | 12

Going on with the list:
SMILES | MgrA DNA FP | Sa helicase inh
OC(c1ccc2c(c1)OCO2)c1nccc2ccccc12 (centres undefined) | nt | 8
N#Cc1c(Cl)cccc1Oc1ccc(-c2nnco2)cc1 | -2.1 | nt
Clc1ccc(-c2cc(-c3ccccc3)n[nH]2)cc1 | 2.2 | -4
COc1ccc(/C(O)=C2\C(=O)C(=O)N(CCN(C)C)C2c2ccccc2)cc1Cl (centres undefined) | nt | 11
O=C(CN1CCN(S(=O)(=O)/C=C/c2ccccc2)CC1)NCC(F)(F)F | nt | 2
Cn1cccc1C=Nc1ccc(S(N)(=O)=O)cc1 | -1.9 | -10
COCc1c(Br)c(C)nc2oc(C(=O)c3ccccc3)c(N)c12 | 3.4 | 5
Cc1cc(=O)[nH]c(SCC(=O)N2CCN(S(=O)(=O)c3ccccc3)C2)n1 | nt | -29
N#C/C=C(\Nc1ccc(F)cc1F)c1ccccc1Cl | 1.2 | nt
CCc1ccc(NC(=O)Cn2cnc3c(nc4n3CCCCC4)c2=O)cc1 | nt | -23
COCc1cc(C)nc2sc(C(=O)Nc3ccc4c(c3)OCO4)c(N)c12 | 0.8 | 11
Fc1ccc(-c2nc3ccc4ccccc4c3c3c2CCC3)cc1 | -0.6 | -1
CCOC(=O)c1cc(-c2cccs2)nn1-c1ccc(F)cc1 | -1.1 | -15
CC(C#N)N1CCN(C(c2ccccc2)c2ccccc2)CC1 (centres undefined) | nt | -6
CNC(=S)N/N=C(\C)c1ccc(F)cc1 | -1.4 | nt
N#Cc1c(-c2cccs2)cc(-c2cccs2)nc1N | 1.6 | nt
O=C(O)CCCn1cc(NC(=O)CCc2ccccc2)cn1 | -5.8 | 1
CCCn1c(SCc2nc(N)nc(Nc3ccc(C)cc3)n2)n[nH]c1=O | nt | 0
Cc1csc(=O)n1CC(=O)OCc1nnc(-c2ccc(Cl)cc2)o1 | nt | 16
O=C(CN1CC(C(=O)N2CCOCC2)Oc2ccccc21)NCCc1c[nH]c2ccccc12 (centres undefined) | nt | 4
O=C(Nc1nc(-c2cccs2)cs1)c1ccc2ncsc2c1 | nt | -23
Cc1onc(-c2ccccc2)c1-c1nc(CSc2nc3ccccc3[nH]2)no1 | -1.6 | nt
O=C(NCCO)c1ccc(N2C(=O)CCC2=O)cc1 | -0.4 | 9
Cc1ccn2c(NC(=O)C3CCCCC3)c(-c3ccc(F)cc3)nc2c1 | -1.5 | 9
CCOc1ccc(C2C(C#N)=C(C)NC3=C2C(=O)CC(c2ccc(Cl)cc2)C3)cc1OC (centres undefined) | -0.3 | nt
O=C(c1ccc2nc[nH]c2c1)N1CCc2ccccc2C1 | nt | -15
COC(=O)c1cc2cccc(OC)c2oc1=O | 0.1 | 9
CCOC(=O)/C(C#N)=C1\SCC(C)(O)N1c1c(F)cccc1F (centres undefined) | -2.5 | nt
O=C(NCc1ccco1)c1ccc2c(Cl)c3c(nc2c1)CCC3 | nt | 14
CCOC(=O)c1cc(=O)c2cc(Cl)ccc2o1 | 4.6 | nt
FC(F)(F)COc1nc(N2CCCCC2)nc(N2CCN(c3ccccc3)CC2)n1 | -0.3 | 9
CC(C)(C)c1ccc(C(=O)NCc2ccco2)cc1 | nt | -9
O=C(CSc1ccccc1)c1ccccc1Br | 0.9 | 2
CC/C=C\C/C=C\C/C=C\C/C=C\C/C=C\CCCC(=O)O | 1.9 | nt
CC(C)[C@H](NS(=O)(=O)c1ccc2c(c1)OCCO2)C(=O)NC1CCCCCC1 | nt | -5
S=C(NCc1ccccc1)NN=C1CCCC1 | nt | 6
CC1=CC(C)C2(COC(CN3CCCCC3)OC2)C(C)C1 (centres undefined) | -3.2 | 4
COc1ccc2[nH]cc(NC(=O)NCc3ccncc3)c(=O)c2c1 | -0.5 | 10
O=S(=O)(Cc1noc(-c2ccc(Cl)cc2)n1)Cc1ccco1 | 2.0 | nt
COCCN1C(=O)c2oc3ccccc3c(=O)c2C1c1ccc(OC)c(OC)c1 (centres undefined) | -0.1 | 7
Cc1ccc(S(=O)(=O)c2nc(C(C)(C)C)oc2NCc2ccccc2)cc1 | -2.1 | 8
CC1=CC(=O)C=CC1=N/C(=N\S(=O)(=O)c1ccc(C)cc1)c1ccccc1 | 22 | 6
CCc1ccccc1NC(=S)N(Cc1cccc(C)c1)c1cccnc1 | -0.8 | 1
Cc1nc2ccc(Cl)cc2cc1C(=O)O | -0.7 | 9
Cc1cccc2nc(-c3cccc(NC(=O)C(C)C)c3)cn12 | -0.1 | 9
Cc1[nH]cnc1CN1CCN(C/C=C/c2ccccc2)CC1 | 1.6 | 1
Cc1nc(-c2ccc3c(c2)CCN3c2ncnc3sccc23)cs1 | nt | 7
Cc1nc(N)sc1Cc1ccc2c(c1)OCO2 | nt | 6
CC(C)SC(=O)c1scc(S(C)(=O)=O)c1Cl | -1.5 | nt
Clc1ccc(NCn2nnc3ccccc32)cc1 | 1.4 | -12
CN1C(=O)CSc2ccc(NC(=O)N3CCN(c4ccccc4)CC3)cc21 | 0.2 | 15
Cc1cc(NC(=O)C(C)(C)C)no1 | nt | -7
COc1ccc(NCC(=O)N/N=C/c2c(C)nn(-c3ccccc3)c2N2CCCC2)cc1 | nt | -12
O=C(c1ccc(Br)o1)N1CCN(c2ccccc2F)CC1 | 1.8 | -1
O=C1CCC(=O)N1OCCCOc1ccccc1 | 1.1 | 8
CC1(C)CC(=O)C=C(OC(=O)c2ccc(C(C)(C)C)cc2)C1 | -1.3 | nt
COc1ccccc1C1SCCN1S(=O)(=O)c1ccccc1 (centres undefined) | nt | 6
CCc1ccc(NC(=O)CCCn2c(=O)c3cccn3c3ccccc32)cc1 | 0.1 | -6
COc1cc(C2C(C(=O)OC(C)C)=C(C)NC3=C2C(=O)CC(c2ccccc2)C3)c([N+](=O)[O-])cc1OC (centres undefined) | 3.2 | nt
CCOC(=O)c1c(N)sc2c1CN(C(=O)OC)N(C(=O)OC)C2 | 1.8 | 0
The listing continues.
SMILES | MgrA DNA FP | Sa helicase inh
Cc1ccccc1-n1ccnc1SCC(=O)O | nt | -12
CC1CCC(NC(=O)CCN2C(=O)C3CC=CCC3C2=O)CC1 (centres undefined) | nt | 19
COc1cccc(C2=NOC(C(=O)Nc3cccnc3)C2)c1 (centres undefined) | nt | -14
N/C(=N\S(=O)(=O)c1cc(Cl)c(Oc2ccc([N+](=O)[O-])cc2Cl)c(Cl)c1)c1ccncc1 | 0.1 | nt
Cc1cc(NC(=O)c2cc(-c3ccccn3)nc3ccccc23)n[nH]1 | nt | 10
OCCSc1c(F)c(F)c(SCCO)c(F)c1F | nt | -3
CN1CCN(C(=O)CC(c2ccccc2)c2ccccc2)CC1 | 1.7 | 24
CC(c1ccccc1)n1c(SCC(=O)N(C)C)nc2ccccc2c1=O (centres undefined) | nt | -2
Cc1ccc(N=C2N=C(N)c3ccccc32)cc1Cl | 0.3 | -18
CCCc1nc2c(o1)N(C(=O)OCC)C(N)=C(C#N)C21CCNCC1 | -0.6 | 9
N#Cc1cc(F)cc(F)c1NC(=O)c1cccs1 | -2.8 | nt
COc1ccc(/C=C(\C#N)C(=O)C(C)(C)C)cc1 | nt | -20

A few values from above.
`CCCc1nc2c(o1)N(C(=O)OCC)C(N)=C(C#N)C21CCNCC1` in MgrA DNA FP → -0.6
`OCCSc1c(F)c(F)c(SCCO)c(F)c1F` in Sa helicase inh → -3
`CC(c1ccccc1)n1c(SCC(=O)N(C)C)nc2ccccc2c1=O` (centres undefined) in Sa helicase inh → -2

(listing goes on)
SMILES | MgrA DNA FP | Sa helicase inh
O=C(CNC(=O)C12CC3CC(CC(C3)C1)C2)N1CCN(c2ccccc2Cl)CC1 | nt | 34
COc1ccc(CCNC(=O)C(C(C)C)N2C(=O)c3ccccc3C2=O)cc1 (centres undefined) | 1.3 | 6
O=C(O)c1ccc(COc2ccc(Cl)cc2)o1 | 1.6 | 4
CCOC(=O)c1nn(-c2ccccc2)c(C#N)c1NC(=O)c1nn(CC)cc1Br | 0.2 | 0
CCOC(=O)C(=CNNC(=O)c1cnn(-c2ccc([N+](=O)[O-])cc2)c1C(F)(F)F)C(=O)OCC | -1.2 | nt
C=CCC(O)(CCN1CCCCC1)c1ccccc1 (centres undefined) | nt | -9
O=C(O)C(Cc1ccccc1)NCc1c(O)ccc2c3c(c(=O)oc12)CCCC3 (centres undefined) | 2.6 | 15
CC(C)CCOc1ccc2c3c(c(=O)oc2c1)CCC3 | 2.5 | 5
O=C(c1ccccc1)c1ccco1 | nt | -5
CCN[C@H]1CN(CCCOC)S(=O)(=O)c2sc(S(N)(=O)=O)cc21 | -1.9 | nt
CCC(=O)n1nc(NCc2ccc(F)cc2)nc1NCc1ccc(F)cc1 | -1.1 | 10
c1ccc(-c2ccnc3nc(-n4cccc4)nn23)nc1 | -0.9 | nt
Nc1ccccc1SCCS(=O)(=O)c1ccc(Cl)cc1 | 2.6 | nt
COc1ccc(C(=O)O)cc1S(=O)(=O)N1CC(c2ccccc2)CC1=O (centres undefined) | nt | 14
N#Cc1ccc(OC(=O)c2ccc(Cl)cc2)cc1 | nt | 19
